High-throughput results as filed in PubChem.
Autofluor counter: counter-screen for toxin protease inhibitors: compound fluorescence. compound autofluorescence counterscreen, microsphere flow cytometry; hits give high values. fluorescence intensity (no concentration beside the values). 360,000 tested, 3.1% active. AID 624483;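 active means at least 3 SD above the mean of all compounds, about 16000 in these data; inconclusive means too few beads counted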;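 further: 100 nL of 1 mM stock went into each well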
BJeLR viability: kills HRASV12-expressing BJeLR cells | 300,000 tested, 0.17% active | inhibition, % (concentration not given with the values) | BJeLR (HRASV12) viability, CellTiter-Glo ATP luminescence, 48 h; reference of the scale not given here;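 active means replicate mean above 50%; inconclusive means above 50% but judged a plate artefact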;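 further: 50 nL library stock added to about 25 µL; numbers are from one replicate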
RN4220 kill: S. aureus RN4220 growth inhibition | inhibition, % (concentration not given with the values) | 330,000 tested, 0.33% active | AID 1259311 | OD600, 16 h;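 active means z-score of -3 or lower and OD600 up to 0.18 on both plates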;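 further: plate controls were untreated cells for no effect and reference antibiotic for full effect; stock transfer was 100 nL into about 80 µL; one replicate is shown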
Mtb hypoxia inh: reduces hypoxia-regulated biosensor signal in M. tuberculosis; 300,000 tested, 0.1% active; M. tuberculosis hypoxia-regulated fluorescent reporter, fluorescence; fluorescence inhibition, % (test concentration not listed);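 active means 35 to 45% if threefold the growth effect, above 45% if 1.5-fold the growth effect; inactive means the rest, general growth blockers included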;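 further: wells of about 50 µL received 100 nL stock; 0% = vehicle wells and 100% = reference inhibitor wells; whole bacteria with a GFP reporter of the hypoxia response; strong numbers were not always called active; many hits fall short of the cut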
PrP 5UTR inh: inhibition of PrP 5' UTR reporter expression; cell-based PrP 5' UTR mRNA reporter, plate reader; inhibition, % (test concentration not listed); 340,000 tested, 0.35% active;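 active means every replicate at 50% or more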;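 further: 0 = median of the neutral control wells; tested in H4 reporter cells; numbers are from one replicate; inactives centre near -14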
ugtP null kill: growth inhibition of S. aureus ugtP deletion strain; S. aureus RN4220 ugtP deletion, OD600 growth, 16 h; some inactives read as strong as hits; growth inhibition, % (concentration not given with the values); 330,000 tested, 0.54% active;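 active means z-score under -3 and OD600 up to 0.15 on both plates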;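 further: plate controls were untreated wells for no effect and antibiotic for full effect; wells of about 80 µL received 100 nL stock; the first replicate is given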
Mtb hypoxia inh growth: recorded beside Mtb hypoxia inh, whose call it bears; growth inhibition, %; measured here: M. tuberculosis growth (absorbance);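 0% = vehicle and 100% = reference antibiotic; read after six days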
Starred values were filed as active, the others as inactive; ? = inconclusive; nt = not tested or not shown; & = joins results of further samples.

1	CCS(=O)(=O)N1CCC(C(=O)NCCC2=CCCCC2)CC1
2	CCc1nnc(NC(=O)[C@@H](NC(=O)c2cccc(S(=O)(=O)N(CC)CC)c2)C(C)C)s1
3	O=C(Nc1cccc(S(=O)(=O)N2CCOCC2)c1)C1CC1
4	Cc1ccc(COC(=O)c2cc(S(=O)(=O)N3CCCCC3)ccc2N2CCOCC2)cc1
5	O=[N+]([O-])c1ccc(CSc2ccc(-c3ccccn3)nn2)cc1
6	O=C(O)c1ccc(C=NN2CCN(Cc3ccc(Cl)cc3)CC2)cc1
7	CN(C)C(=O)c1ccc(NC(=O)COC(=O)c2cc(S(=O)(=O)N(C)C)ccc2N2CCCC2)cc1
8	COc1cc(C=O)ccc1Oc1nnnn1-c1ccccc1
9	Cn1c2ccccc2c(=O)c2c(=O)n(-c3ccc(F)cc3)c(-c3cccs3)nc21
10	CC(=O)Nc1ccc(/C=C(\C#N)C(=O)NC2CCCCC2)cc1
Assay by compound	1	2	3	4	5	6	7	8	9	10
Autofluor counter	11091	8351	6088	?	4158	nt	4279	3739	6264	4630
BJeLR viability	14	8	nt	-2	11	nt	-8	-1	-1	8
RN4220 kill	2.7	-0.1	4.1	0.7	4.2	2.0	1.0	-0.3	4.0	1.8
Mtb hypoxia inh	1	-4	3	10	5	3	-4	1	16	0
Mtb hypoxia inh growth	2	-13	0	3	-13	13	-3	15	14	7
PrP 5UTR inh	-56	-7	-1	-14	-13	nt	-10	-14	-16	-11
ugtP null kill	-2	-2	5	-5	12	1	7	-4	2	-5

Next part, overlapping the part above by two compounds.
9	Cn1c2ccccc2c(=O)c2c(=O)n(-c3ccc(F)cc3)c(-c3cccs3)nc21
10	CC(=O)Nc1ccc(/C=C(\C#N)C(=O)NC2CCCCC2)cc1
11	CCN(CC)c1ccc(NC(=O)c2cnccn2)cc1S(=O)(=O)Nc1ccc(OC)cc1
12	COc1ccc(Nc2sc(C(=O)c3ccc(Cl)cc3)c(N)c2C(=O)Nc2ccccc2OC)cc1
13	Cn1c(CCNC(=O)C2CCCCC2)nc2cc([N+](=O)[O-])ccc21
14	CC(NC(=O)COC(=O)CCc1nc(=O)c2ccccc2n1C)c1ccccc1 (centres undefined)
15	Nc1ncnc(N(c2ccccc2)C2CCCCC2)c1[N+](=O)[O-]
16	Cc1[nH]n(-c2ccc([N+](=O)[O-])cc2)c(=O)c1C=NCCN1CCN(C(=O)c2ccc(Br)cc2)CC1
17	O=C(Nc1nc2ccccc2n1CCN1CCOCC1)c1ccc(Cn2cc([N+](=O)[O-])cn2)o1
18	COc1ccc([N+](=O)[O-])cc1NC(=O)C1CCCNC1=O (centres undefined)
19	O=C(COC(=O)c1ccc2ccccc2c1O)NCC(F)(F)F
20	O=C(CSc1nc(-c2ccc(F)cc2)cc(C(F)(F)F)n1)NCc1cccs1
Assay by compound	9	10	11	12	13	14	15	16	17	18	19	20
Autofluor counter	6264	4630	2233	22771*	4211	4627	10370	?	7165	3164	4504	2048
BJeLR viability	-1	8	3	8	6	13	-12	30	3	8	-22	3
RN4220 kill	4.0	1.8	3.1	0.1	9.4	3.7	1.0	4.2	nt	1.3	0.1	3.2
Mtb hypoxia inh	16	0	0	1	14	-1	4	-5	nt	2	-5	1
Mtb hypoxia inh growth	14	7	4	6	9	-4	8	-5	nt	-3	-16	1
PrP 5UTR inh	-16	-11	-128	-24	1	-9	-12	-16	-4	-13	2	-19
ugtP null kill	2	-5	-14	-2	5	9	9	6	nt	2	-2	-22

21	Cc1ccc(SCCCCN2C(=O)NC(C)(C)C2=O)cc1
22	COc1ccc(C(=O)NC(=S)Nc2ccc(N3CCCC3)cc2)cc1
23	O=C(C1CCN(c2ncnc3c2sc2cccc(F)c23)CC1)N1CCOCC1
24	CCC(C)(C(=O)NC1CCCC1)N(C(=O)CNC(C)=O)c1ccccc1 (centres undefined)
25	CCCn1c(/C=C/c2cc[n+](C)cc2)nc2ccccc21
26	CC(=O)N1CC=CC1(CC(C)C)C(=O)NCCc1c[nH]c2ccccc12 (centres undefined)
27	COc1ccc(C2CC(=O)C=C(c3ccc(Cl)cc3C)C2)cc1 (centres undefined)
28	COc1ccc2oc(C(=O)OCC(=O)NC3CC3)c(C)c2c1
29	C1CCC(n2nnnc2CN2CCCC2)CC1
30	C=CCOC(=O)C1=CC(c2csc3ccccc23)CC(OCc2ccc(CO)cc2)O1 (centres undefined)
Assay by compound	21	22	23	24	25	26	27	28	29	30
Autofluor counter	7224	3712	5330	2809	5045	3017	nt	5553	23839*	nt
BJeLR viability	-2	7	3	1	-4	1	nt	-5	-3	nt
RN4220 kill	5.8	4.5	4.6	1.0	-1.6	5.0	2.5	1.1	-0.1	-1.8&8.7
Mtb hypoxia inh	1	24	15	nt	0	8	15	3	4	-1&19
Mtb hypoxia inh growth	5	24	11	nt	6	9	3	7	10	8&13
PrP 5UTR inh	-18	-15	-13	-28	3	-14	nt	-19	2	nt
ugtP null kill	3	81	13	7	7	-15	8	3	-3	-3&13

31	CCOc1ccc(CC(=O)Nc2ccc(NC(=O)c3ccco3)cc2)cc1OCC
32	C=CCNCC(=O)Nc1sc2c(c1C(=O)Nc1ccc(OC)cc1OC)CCC2
33	Cc1nnc(SCc2ccccc2)nc1-c1ccccc1
34	Cc1ccc(Cn2c(=O)n(CCC(=O)NCc3ccc4c(c3)OCO4)c(=O)c3ccccc32)cc1
35	COc1ccc(OC)c(-n2c(N)c(C(=O)NCC3CCCO3)c3nc4ccccc4nc32)c1 (centres undefined)
36	Fc1ccc(CSc2nnc(-c3cccnc3)o2)cc1
37	O=C(COC(=O)CNS(=O)(=O)c1ccc(F)c(F)c1F)NC1CCCC1
38	O=C(Cn1cnc2ccccc2c1=O)c1c[nH]c2ccccc12
39	O=C(COC(=O)c1ccc(F)cc1)NC1CC1
40	CC1=C[C@@H]2c3cccc4[nH]cc(c34)C[C@H]2N(C)C1
Assay by compound	31	32	33	34	35	36	37	38	39	40
Autofluor counter	3511	2306	3530	9835	3868	5792	4674	4245	3793	2486
BJeLR viability	82*	-2	2	-9	2	2	-3	-11	nt	-8
RN4220 kill	1.7	11	-9.1	5.3	-7.0	11	-1.0	4.7	0.6	nt
Mtb hypoxia inh	1	0	5	8	nt	nt	0	nt	11	nt
Mtb hypoxia inh growth	2	2	-5	13	nt	nt	-2	nt	18	nt
PrP 5UTR inh	-31	-14	-43	-22	-18	-15	-27	-7	-18	11
ugtP null kill	0	-9	3	-2	-12	5	-2	-2	4	nt

By substructure, the compounds so far containing a furan ring, fused or not (3)
17	O=C(Nc1nc2ccccc2n1CCN1CCOCC1)c1ccc(Cn2cc([N+](=O)[O-])cn2)o1
28	COc1ccc2oc(C(=O)OCC(=O)NC3CC3)c(C)c2c1
31	CCOc1ccc(CC(=O)Nc2ccc(NC(=O)c3ccco3)cc2)cc1OCC
Assay by compound	17	28	31
Autofluor counter	7165	5553	3511
BJeLR viability	3	-5	82*
RN4220 kill	nt	1.1	1.7
Mtb hypoxia inh	nt	3	1
Mtb hypoxia inh growth	nt	7	2
PrP 5UTR inh	-4	-19	-31
ugtP null kill	nt	3	0

(more compounds)
41	CC(C)c1ccc(CN2CCN(C(=O)CCl)CC2)cc1
42	CCN(CC)S(=O)(=O)c1ccc(N(C)Cc2cccnc2)nc1
43	Cc1ccc(-c2nn3cnnc3c3ccccc23)cc1C
44	Cc1nc2cc(NC(=O)Nc3cccc([N+](=O)[O-])c3)ccc2n1C
45	COc1ccc(C=NNC(=O)c2sc(C)nc2C)cc1
46	CC1(C(=O)NCCCNc2ncc(C(F)(F)F)cc2Cl)C=CCN1C(=O)c1ccccc1 (centres undefined)
47	CC1(c2cccc(Br)c2)NC(=O)N(CC(=O)N2CCN(C(=O)c3ccco3)CC2)C1=O (centres undefined)
48	CC1CCCCC12NC(=O)N(CC(=O)N1CCN(C(=O)c3ccco3)CC1)C2=O (centres undefined)
49	COC(=O)CSC1=C(C#N)C(c2cccc(F)c2)CC(=O)N1 (centres undefined)
50	Cc1ccc(Nc2ncccc2C(=O)NCc2cccs2)c(C)c1
Assay by compound	41	42	43	44	45	46	47	48	49	50
Autofluor counter	3494	2311	3654	3402	nt	3435	8421	8073	4504	21631*
BJeLR viability	nt	-1	-2	-2	nt	-5	nt	nt	1	-3
RN4220 kill	3.8	4.0	2.7	-2.4	-1.8	0.0	1.6	2.6	-3.1	-6.9
Mtb hypoxia inh	24	nt	-11	-8	-2	19	-3	3	nt	14
Mtb hypoxia inh growth	25	nt	2	-9	-5	10	3	16	nt	13
PrP 5UTR inh	-2	-10	4	-63	nt	-26	-65	-6	-24	-35
ugtP null kill	2	6	-14	-3	-2	3	2	4	-6	-6

51	COc1ccc(CN2CCN(C(=O)c3ccc4c(c3)CCC4)CC2)cc1OC
52	COc1ccc(NC(=O)CN(C)S(=O)(=O)c2ccc(C)cc2)c([N+](=O)[O-])c1
53	CN(C)c1ccc(C(=O)N/N=C/C23CC[C@@H](O)CC2(O)CC[C@@H]2[C@@H]3CCC3(C)C(C4=CC(=O)OC4)CCC23O)cc1 (some centres undefined)
54	COC(=O)NN=Cc1ccc(-c2cccc(Cl)c2)o1
55	COC(=O)Nc1nnc(/C=C/c2ccc(OC)cc2)s1
56	CSc1nc(O)c(C=C2C=Nc3ccccc32)[nH]1
57	Cc1ccsc1C(=O)OCC(=O)NC1CCCCC1C (centres undefined)
58	COc1ccccc1CN1CCN(Cc2nc(Cc3ccccc3)no2)CC1
59	COc1ccccc1/C=C1\SC(=S)N(CCC(=O)NNC(=O)c2ccccc2O)C1=O
60	O=C(Nc1cccc(S(=O)(=O)NC2=NCCC2)c1)c1cn(-c2ccccc2)nc1-c1ccc(F)cc1
Assay by compound	51	52	53	54	55	56	57	58	59	60
Autofluor counter	3790	2020	3304	nt	2124	nt	3911	4940	5695	8983
BJeLR viability	nt	4	44	nt	20	nt	nt	2	-1	nt
RN4220 kill	0.3	1.8	nt	-0.8	4.9	11	4.3	-0.9	21	-3.0
Mtb hypoxia inh	7	12	nt	12	18	7	6	1	18	-10
Mtb hypoxia inh growth	7	5	nt	-4	10	5	2	6	-1	10
PrP 5UTR inh	-10	-28	13	nt	-17	nt	-37	-20	-19	6
ugtP null kill	1	1	nt	-4	-2	-6	5	9	-10	-11

61	COCCSc1ccccc1C(=O)N1CCN(c2ccccc2OC)CC1
62	COc1ccc(NC(=O)COC(=O)/C=C/c2cccs2)c(OC)c1
63	COc1cccc(NC(=O)CN2CCC(C)CC2)c1
64	O=Cc1c(N2CCN(CCO)CC2)nc2ccccn2c1=O
65	Cc1ccc(C(=O)NN2C(=O)c3ccc(S(=O)(=O)c4ccc(C(=O)O)cc4)cc3C2=O)cc1
66	COc1cc(OC)cc(-c2c(-c3cccs3)c3cc(-c4ccc5c(c4)OCCO5)ccc3n2C)c1
67	Cc1cc(OCCn2ccnc2)cc(C)c1Cl
68	Cc1cc(C)c(C#N)c(SCC(=O)C(C)(C)C)n1
69	Cc1nnsc1C(=O)NNc1ccc(C(C)(C)C)cc1
70	Cc1ccc(NC(=O)CSCC(=O)Nc2sccc2C#N)cc1
Assay by compound	61	62	63	64	65	66	67	68	69	70
Autofluor counter	4115	5932	22557*	3640	4188	3678	4036	10258	nt	?
BJeLR viability	1	nt	1	-1	4	nt	-19	18	-8	-5
RN4220 kill	-0.1	2.1	-1.1	nt	-5.5	0.0	3.6	2.7	2.2	2.4
Mtb hypoxia inh	16	4	6	nt	-1	-3	9	9	1	3
Mtb hypoxia inh growth	12	7	11	nt	10	-1	10	16	-8	2
PrP 5UTR inh	-14	nt	-8	-14	-14	-9	-16	-44	-13	-4
ugtP null kill	11	-4	-3	nt	-3	-2	-9	-3	5	-1

71	CCCOC(=O)C1[C@H]2C(=O)N(Cc3ccco3)C[C@]23C=C[C@H]1O3 (some centres undefined)
72	COc1cc(C(=O)Nc2ccc(C(=O)c3cccs3)cc2)cc(OC)c1OC
73	Cc1c(C)n(C(=O)CN2CCC(C)CC2)c2ccccc12
74	COc1cccc(NC2=CC(=O)CC(C)(C)C2)c1
75	CCOc1ncccc1C(=O)OCC(=O)c1cc(OC)ccc1OC
Assay by compound	71	72	73	74	75
Autofluor counter	9415	3893	3750	9055	4369
BJeLR viability	-6	9	-9	13	5
RN4220 kill	2.5	-4.6	2.4	1.7	4.9
Mtb hypoxia inh	9	2	nt	-2	4
Mtb hypoxia inh growth	0	9	nt	-2	6
PrP 5UTR inh	-31	-16	-23	-6	-21
ugtP null kill	-2	-1	7	4	-1

An unsorted share of the library; about 3.9% have a hit in one of these screens.
